Rce1 inhib = yeast Rce1p protease inhibitors, primary screen, biochemical, fluorescence, cell-free homogeneous; CAAX prenyl protease 2 (Saccharomyces cerevisiae (strain ATCC 204508 / S288c)), Q03530; yeast membranes, quenched prenylated peptide cleavage fluorescence; calls only; 290,000 compounds, 0.27% hits; AID 2563, 2010;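 active means fall in fluorescence gain of 50% or more versus controls, with final raw signal at or below 3038400; inconclusive means same 50% fall but final raw signal above 3038400; inactive means fall in fluorescence gain under 50%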;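 further: plate controls were neutral control wells for no effect and wells lacking membranes for full effect; tested at 10 µM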
Target sequence (Q03530 whole entry, looked up): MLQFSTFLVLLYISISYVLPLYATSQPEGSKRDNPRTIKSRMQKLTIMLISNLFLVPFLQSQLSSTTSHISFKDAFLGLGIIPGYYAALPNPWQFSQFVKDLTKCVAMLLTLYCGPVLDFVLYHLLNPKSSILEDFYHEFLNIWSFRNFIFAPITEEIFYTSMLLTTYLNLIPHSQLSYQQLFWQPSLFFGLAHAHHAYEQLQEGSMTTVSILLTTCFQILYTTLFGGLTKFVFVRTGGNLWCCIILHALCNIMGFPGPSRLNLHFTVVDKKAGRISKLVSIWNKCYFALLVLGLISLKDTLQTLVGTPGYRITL
MT1-MMP act inh = blockers of MT1-MMP proenzyme processing, primary screen, HT1080 RFP-PRO-GFP cells, GFP/RFP fluorescence | 360,000 compounds, 0.061% hits | GFP/RFP ratio change, % at 20 µM | GFP/RFP ratio fluorescence, overnight; percent of plate control window, DMSO zero;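 active means GFP/RFP ratio change of at least 30% with cell ATP level not reduced by more than half and red fluorescence within 50% of control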; further: strong numbers were not always called active
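Test system: HT1080 cells expressing an RFP-PRO-GFP fluorescent reporter construct / Compound dosing: single-point 20 µM compound, 1% DMSO / Schedule: cells overnight before dosing, compound overnight, 37 °C, 5% CO2 / Evaluation: GFP/RFP fluorescence ratio / Control set: DMSO and RFP-L50D-GFP cell wells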
HIV Env fusion = inhibitors of HIV-1 Env-driven cell-cell fusion, primary screen, HeLa-JRFL effector, CEM21 target cells, luciferase; inhibition, % at 12.3 µM; AID 651610, 2012; 360,000 compounds, 1.1% hits;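 active means mean replicate inhibition score of at least 50 and every replicate individually at or above 50; inconclusive means only one of the two criteria met; inactive means mean below 50 and not all replicates reaching 50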;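 further: 0% = plate neutral controls and 100% = maraviroc near 300 nM; one replicate is shown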
eIF4H inh = human eIF4H binding inhibitors, primary screen, translation initiation inhibitor project, biochemical, uHTS, fluorescence polarization; Eukaryotic translation initiation factor 4H (Homo sapiens), Q15056; 290,000 compounds, 0.94% hits; inhibition, % at 35 µM; eIF4H fluorescence polarization binding assay;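 active means 50% or more with normal probe brightness, or confirmed in later tests; inconclusive means above 50% with abnormal brightness, or retests that disagree; inactive means below 50% or failed in later tests; about a fifth of its hits are not listed in these tables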;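 further: calls also rest on retests at 20 µM and on dose response follow-up; 0% = protein and probe with vehicle and 100% = probe without protein; strong numbers were not always called active; many hits fall short of the cut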
CSC inhib = cancer stem cell viability inhibitors, primary screen, luminescence. cancer stem cell-like cells viability. inhibition, % at 7.5 µM. 300,000 compounds, 1.1% hits. AID 2717, 2010;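 active means mean at 75% or more and at least half the replicates too; inconclusive means mean and replicates disagree; tested in HMLE shEcad cells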;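 further: 0% = median of negative and 100% = median of positive control wells; the first replicate is given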
PABP FP inh = PABP poly(A) RNA binding inhibitors, primary screen, biochemical, fluorescence polarization, uHTS | inhibition, % at 35 µM | 290,000 compounds, 1% hits | AID 2014, 2009;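 active means 50% or more with normal probe brightness, or confirmed in later tests; inconclusive means above 50% with abnormal brightness, or retests that disagree; inactive means below 50% or failed in later tests; about a fifth of its hits are not listed in these tables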;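 further: calls also rest on retests at 20 µM and on dose response follow-up; controls were probe without protein and protein plus probe with vehicle; some compounds called inactive have numbers as strong as hits; many hits fall short of the cut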
Target sequence (P11940 whole entry, looked up): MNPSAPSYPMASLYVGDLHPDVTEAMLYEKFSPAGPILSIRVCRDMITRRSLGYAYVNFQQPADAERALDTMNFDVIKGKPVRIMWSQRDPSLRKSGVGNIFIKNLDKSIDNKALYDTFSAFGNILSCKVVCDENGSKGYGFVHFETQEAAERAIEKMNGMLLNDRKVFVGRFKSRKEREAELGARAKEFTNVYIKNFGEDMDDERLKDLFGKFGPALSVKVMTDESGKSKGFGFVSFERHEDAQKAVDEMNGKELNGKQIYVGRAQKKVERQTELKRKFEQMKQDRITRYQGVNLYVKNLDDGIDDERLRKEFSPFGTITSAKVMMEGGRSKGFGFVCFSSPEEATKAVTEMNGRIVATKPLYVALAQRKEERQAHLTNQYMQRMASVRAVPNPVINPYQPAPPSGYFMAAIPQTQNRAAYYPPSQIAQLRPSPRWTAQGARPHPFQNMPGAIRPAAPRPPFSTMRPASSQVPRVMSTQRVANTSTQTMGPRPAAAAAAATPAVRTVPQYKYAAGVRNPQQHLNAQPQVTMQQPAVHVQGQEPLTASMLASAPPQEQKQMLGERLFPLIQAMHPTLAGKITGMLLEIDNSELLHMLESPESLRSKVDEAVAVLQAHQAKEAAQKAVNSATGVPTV
UUG fidelity = modulators of yeast start codon fidelity, primary screen, whole organism, S. cerevisiae, single point, plate reader | S. cerevisiae UUG-firefly luciferase reporter, luminescence/redox ratio | activity score, % at 18.7 µM | 350,000 compounds, 0.13% hits;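 active means replicate mean at a twofold rise or more, about +100% in these data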;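 further: firefly luciferase made from a UUG start codon reports start codon fidelity; reporter light over untreated wells divided by growth signal over untreated wells; some hits fall short of that in this replicate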
eIF4H inh retest = second read-out of eIF4H inh, no call of its own (marks repeat the call); inhibition, %; compound at 20 µM; confirmation average;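 mean of two retest wells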
PABP FP inh retest = further read-out of PABP FP inh, marked with its call; inhibition, %; compound at 20 µM; confirmation repeats;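 mean of two retest wells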
MT1-MMP act inh RFP = second read-out of MT1-MMP act inh, no call of its own (marks repeat the call); RFP signal change, %; measured here: RFP expression control read;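 0 = vehicle wells; hits needed this value within 50% of zero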
* = called active by the depositor; i = inactive; ? = inconclusive; nt = not tested or not shown. This is a subset; count on the stated rates, not on these rows.

SMILES	Rce1 inhib	MT1-MMP act inh	MT1-MMP act inh RFP	HIV Env fusion	eIF4H inh	CSC inhib	PABP FP inh	UUG fidelity	others
CCOc1ccc(-c2nc(CSCC(=O)NC3CCCc4ccccc43)c(C)o2)cc1 (configuration not stated)	i	-12.3	-8.8	-11.9	11.2	1.8	-1.7	4.6
CCOC(=O)c1c(NC(=O)C2C3C=CC(CC3)C2C(=O)O)sc(C)c1CC (configuration not stated)	i	-3.4	-0.7	-8.1	1.9	-3.0	12.6	-5.9
C=CCOCCN(CC)CC	i	3.3	-2.1	-0.6	8.6	-11.3	6.7	-12.1
COc1ccc(CNC(=O)CCNS(=O)(=O)c2ccc(NC(C)=O)cc2)cc1OC	nt	-1.5	1.3	3.7	nt	-12.9	nt	5.1
CC(C)C(=O)Nc1ccc(C(=O)NNC(=S)NC(=O)c2ccccc2[N+](=O)[O-])cc1	i	4.5	4.1	-10.8	3.1	nt	-0.7	-31.3
CC(=O)N1CCOc2cc(S(=O)(=O)NCc3ccc(F)cc3)c(C)cc21	i	1.2	1.6	-0.2	-0.1	nt	-13.6	3.4
COc1ccc(-c2n[nH]c(=S)n2-c2cc(OC)ccc2OC)cc1	i	-4.5	1.9	-0.7	-9.3	-9.4	7.6	-14.2
CCc1sc(C(=O)Nc2ccc(N3CCOCC3)cc2)cc1C	nt	3.1	2.0	-4.7	nt	38.7	nt	-3.0
C/C(=C\c1ccccc1)CN1CCC(C(=O)N2CCCC(C)C2)CC1 (configuration not stated)	i	3.4	4.0	-11.1	4.9	3.5	5.3	nt
CC(=O)NC(C)(c1ccccc1)c1nc(-c2cccc3cccnc23)cs1 (configuration not stated)	nt	-0.3	5.7	-15.6	nt	nt	nt	-14.5
O=C(COc1cc(Cl)c(Cl)cc1Cl)Nc1cccc(O)c1	i	8.9	-0.3	-200.7	-2.5	8.5	12.2	nt
O=[N+]([O-])c1ccc(C[n+]2ccc(Cc3ccccc3)cc2)cc1	i	-0.8	-0.2	-160.4	5.5	-21.5	5.3	-2.0
O=C(N/N=C/c1ccccn1)c1cc(-c2ccc(Cl)s2)[nH]n1	i	4.6	2.4	-8.0	-6.1	-6.5	-6.9	4.1
COC(=O)c1ccc(/C=C/c2c(-c3ccc(OC)cc3)sc3ccccc23)cc1	nt	7.6	-3.6	-21.4	nt	120.3*	nt	-21.6
CCOc1ccc(-c2csc(NC(=O)c3ccco3)n2)cc1	i	1.0	-4.1	-19.4	-10.8	5.5	7.5	-4.8

Brought forward from above: two compounds, then new ones.
SMILES	Rce1 inhib	MT1-MMP act inh	MT1-MMP act inh RFP	HIV Env fusion	eIF4H inh	CSC inhib	PABP FP inh	UUG fidelity	others
COC(=O)c1ccc(/C=C/c2c(-c3ccc(OC)cc3)sc3ccccc23)cc1	nt	7.6	-3.6	-21.4	nt	120.3*	nt	-21.6
CCOc1ccc(-c2csc(NC(=O)c3ccco3)n2)cc1	i	1.0	-4.1	-19.4	-10.8	5.5	7.5	-4.8
CCOC(=O)/C(C#N)=C/c1c(N2CCN(c3cccc(Cl)c3)CC2)nc2c(C)cccn2c1=O	i	-10.6	-10.2	34.9	12.4	nt	1.0	-15.2
O=[N+]([O-])c1cc(Cl)cc2c1nc(NCCO)c1ccccc12	i	-4.9	-4.3	7.4	5.7	66.2	2.7	-2.1
COc1ccc(N(C(=O)c2ccncc2)S(=O)(=O)c2ccc3c4c(cccc24)C(=O)N3C)cc1	i	-3.3	-1.3	-14.6	3.0	-7.0	-1.3	nt
Cc1cccc(NS(=O)(=O)c2nnc(NC(=O)c3ccc(C)c(C)c3)s2)c1	nt	1.9	2.0	-18.5	-2.0	0.8	-3.6	-12.2
CCOC(=O)CC1NCCc2c1[nH]c1ccc(OC)cc21 (configuration not stated)	i	-2.1	1.7	-16.0	-10.1	0.5	6.7	14.8
CCOc1cc(/C=N/NC(=O)c2ccc(-c3csc(Nc4ccc(C)cc4)n3)cc2)ccc1OCC(=O)O	nt	4.6	5.7	4.5	93.9	nt	1.5	nt	eIF4H inh retest=-2.8;PABP FP inh retest=-3.1
CC(=O)c1c(-c2ccccc2)c2cc(Cl)ccc2n(C)c1=O	i	-13.1	-7.3	-13.9	-3.0	-5.8	-7.0	-8.1
O=C(NC1CCCCC1)C(c1ccc2ncccc2c1)N(Cc1ccc(F)cc1)C(=O)c1cccs1 (configuration not stated)	i	-8.3	-10.1	25.8	3.0	-15.1	5.0	9.9
CCn1c(CNS(=O)(=O)c2ccc(Br)cc2)nnc1SC	i	1.3	3.6	-7.2	5.3	17.1	-3.4	-13.8
COc1ccccc1NC(=O)c1ccc(NC(=O)COC(=O)CC(NC(=O)c2ccccc2Cl)c2ccccc2)cc1 (configuration not stated)	nt	5.5	1.2	14.2	-12.8	-4.4	-8.1	nt
NC(=O)c1noc(C(=O)N(CC(=O)NC2CCCC2)Cc2ccc3c(c2)OCO3)c1N	nt	5.1	3.6	nt	2.3	5.5	-1.2	-5.7
CCCCN(CC)CCCNC(=O)CC1Oc2ccccc2NC1=O (configuration not stated)	i	-2.3	0.2	nt	-2.5	0.1	-0.9	8.3
Cn1c(SCC(=O)Nc2ccc(Cl)cc2F)nnc1-c1ccco1	i	3.7	3.1	-4.3	-6.8	-0.7	4.7	-10.9
O=C1COc2ccc(C(=O)CSc3nnc(Cc4cccs4)n3-c3ccc(Cl)cc3)cc2N1	i	3.9	-0.6	20.5	-2.1	nt	0.0	-17.5
COC(=O)CN1C(=O)COc2ccc(S(=O)(=O)N3CCCCC3)cc21	nt	-4.0	-0.1	7.2	nt	nt	nt	-9.5
COc1cc(/C=C(\C#N)c2nc3ccccc3[nH]2)c([N+](=O)[O-])cc1OCc1ccccc1	i	-23.9	-20.3	nt	-2.3	11.1	5.7	-8.9
CCC(=O)Nc1nc(C)c(-c2csc(Nc3cccc(C(=O)O)c3)n2)s1	i	-5.0	-0.6	-7.6	-4.7	6.2	-2.7	nt
CC(=O)c1ccc(NC(=O)c2cccc(S(=O)(=O)N3CCN(C)CC3)c2)cc1	i	-1.1	-0.7	5.2	-8.2	6.1	-3.7	-3.6
COc1cccc(NC(=O)c2oc3ccccc3c2NC(=O)C(C)(C)C)c1	nt	1.8	-1.7	?	-2.5	-3.7	10.0	-5.6
COc1ccccc1NC(=O)c1ccc(NC(=O)COC(=O)CCC2CCCC2)cc1	nt	6.0	2.7	-111.0	-9.2	-4.1	10.0	nt
NC(=O)C(=O)N/N=C/c1c(F)c(F)c(F)c(F)c1F	i	0.5	4.2	-20.4	6.2	4.5	-11.0	nt
O=C1CN(Cc2nc3cc(Cl)ccc3c(=O)[nH]2)CCN1	i	-2.4	1.6	-14.5	14.0	13.9	-3.2	-24.1
COc1ccccc1N1CCN(C(=O)C2CCCCN2S(=O)(=O)c2ccc(C)cc2)CC1 (configuration not stated)	i	-4.0	-10.2	0.0	-7.1	-6.1	-2.3	-2.9
Cc1ccc(C([O-])=C(C(=S)NCc2ccccc2)[n+]2cccc(CO)c2)cc1[N+](=O)[O-]	nt	-2.8	-0.2	-157.0	nt	nt	nt	15.6
COc1cccc(CNC(=O)CCS(=O)(=O)c2cccc3nonc23)c1	i	-2.3	-1.9	-33.2	-4.2	-2.2	-4.8	-13.2
O=C(NCCc1ccccc1)C1(c2ccccc2)CCCC1	i	-0.2	-2.6	-8.9	-6.6	-17.4	2.7	-18.4
Cc1ccc(C)c(S(=O)(=O)NCc2cccnc2)c1	i	-0.9	2.5	11.9	0.5	13.7	2.6	-12.9
Cc1cc(C)n(CC(=O)NNC(=O)c2cccc(C(F)(F)F)c2)n1	i	2.2	-0.9	1.1	0.8	-11.5	-3.9	11.8
O=C(NCc1ccccc1)C1CCC1	i	-5.3	-1.8	-2.8	-11.7	nt	-3.0	nt
O=C(Nc1ccccc1)c1cccnc1N1CCCC1	i	-1.1	-0.8	-20.8	1.5	nt	-10.6	nt
CCN1C(=O)N[C@@H](c2cccc(C(F)(F)F)c2)[C@H](C(C)=O)[C@H]1C	i	2.3	2.9	10.4	nt	-2.6	nt	-13.5
O=C(Cc1ccccc1)Oc1coc(CSc2ncccn2)cc1=O	i	14.6	9.5	3.0	3.0	1.6	-6.6	12.8
Cc1ccc2nc(SCC(=O)c3c(N)n(C)c(=O)n(C)c3=O)[nH]c2c1	i	-2.2	-1.8	-0.4	-1.9	-11.2	-14.2	nt
NNc1nc(-c2ccccc2)c2cc(Cl)ccc2n1	i	-2.0	-2.4	-19.6	-4.5	6.2	-5.3	nt
CCOC(=O)N1CCC(NC(=O)C(CC(C)C)NC(=O)C2CCC(C)CC2)CC1 (configuration not stated)	i	15.5	0.7	-29.2	1.6	-11.2	-10.3	17.7
COc1ccc(NS(=O)(=O)c2cccc(C(=O)NCC(c3ccccc3OC)N3CCCC3)c2)cc1 (configuration not stated)	i	1.1	3.1	-36.5	nt	4.5	nt	-3.8
COc1ccc2c(c1OC)C(=O)OC2Nc1nc(-c2ccccc2)cs1 (configuration not stated)	i	-6.4	-17.0	nt	6.6	126.3*	-11.7	nt
CCOC(=O)C1=NNC(C(=O)c2ccccc2)C1c1ccc(OC)cc1 (configuration not stated)	i	-3.6	0.2	nt	nt	-3.7	nt	-27.3
CCCc1nc(SCC(=O)N2CCc3ccccc3C2)c2ccccc2n1	i	-3.8	-6.7	nt	-0.7	20.7	4.4	-14.3
CCc1nc2ccc(C(=O)Nc3cccc(OC)c3)cn2c1N(CC)CCN(C)C	nt	-3.9	5.1	-28.0	nt	nt	nt	-19.3
CCn1c(CNC(=O)COc2ccc(C(C)C)cc2)nnc1SCC(=O)Nc1ccc(F)cc1	i	-7.5	-13.9	nt	-2.1	-5.5	-7.8	-16.8
CN(CC12CC3CC(CC(C3)C1)C2)C(=O)c1ccco1	i	-3.8	-5.3	14.5	-5.1	13.4	-12.2	-0.8
COCCN(CCOC)S(=O)(=O)c1ccc(C(=O)Nc2nc3c(s2)CCc2ccccc2-3)cc1	i	7.7	-3.0	nt	0.1	16.1	3.4	1.4
Cc1ccc(NC(=O)NC(=O)c2cnccc2C(F)(F)F)c(C)c1	i	-1.3	-0.9	8.1	-7.8	3.1	7.4	-14.0
CC(Nc1ccc(Br)cc1)C(=O)NC(=O)NC1CCCCC1 (configuration not stated)	nt	4.2	3.4	-2.2	nt	nt	nt	-16.6
C[C@H](N)C(=O)NC[C@H]1O[C@@H](n2cnc3c(N)ncnc32)[C@H](O)[C@@H]1O	nt	1.8	4.5	-6.7	nt	nt	nt	-23.0
CCOCCOC(=O)COc1ccc2c(=O)c(Oc3ccc(OC)cc3)coc2c1	i	0.0	-0.9	4.3	3.8	-7.9	1.8	-3.3
CCOc1ccc2ccccc2c1/C=N/NC(=O)c1ccncc1	i	-0.3	2.4	-9.9	-4.0	-9.5	-2.9	-15.2

Screens deposited in PubChem BioAssay by several laboratories.
